Screening data as filed in PubChem.
TsaE inh = qHTS Assay for Inhibitors of YjeE. purified YjeE, fluorescence polarisation of a bound ADP probe. AID 605, 2007. Potency, µM. 71,000 compounds, 0.05% hits; active = well fitted falling curve; inconclusive = weaker or top-dose-only fall, or a rising curve; inactive = flat or poorly fitted curve;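 also: top concentration of the series not given in the record; excess ADP was the control for the full effect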
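Fluorescence polarization of a BODIPY Texas Red–ADP probe (2 uM) bound to purified YjeE (10 uM) was read after 15 min room-temperature incubation with compounds. Loss of polarization marks inhibitors; ADP serves as titrated control.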
Bst PK mod = Pyruvate Kinase; Potency, µM; partly purified Bacillus stearothermophilus pyruvate kinase, luminescence ATP production; ribose 5-phosphate activator present at AC10; 51,000 compounds, 1.2% hits; in the data active means potency below about 11 µM; inconclusive means mostly about 12 µM to 25 µM; inactive means weaker than that;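 the screen sought inhibitors and activators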;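 also: potency is read from the fitted curve at half-maximal effect; scaled between full activation by ribose 5 phosphate and full inhibition by luteolin; about four in five hits inhibit and the cells do not say which; series up to 57 µM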
* = called active by the depositor; i = inactive; u = inconclusive; x = not tested or not shown. Not all compounds are listed; the hit share may differ from the screen's.

SMILES	TsaE inh	Bst PK mod
Cc1nc2c(-c3ccccc3)c(C)[nH]n2c(=O)c1Cl	i	>57
CCOC(=O)c1csc(NC(=O)C2CCCCC2)n1	i	x
O=C(c1ccc(O)cc1)c1ccc(Cl)cc1	i	x
O=C(c1nn2c(C(F)(F)F)cc(-c3ccc(F)cc3)nc2c1Cl)N1CCOCC1	i	x
O=C(O)CSCC(=O)Nc1cccc2ccccc12	i	i
O=S(=O)(c1ccccc1)N(C1=NCCS1)S(=O)(=O)c1ccccc1	i	>57
Cc1cc(C(F)(F)F)c2c(N)c(C(=O)Nc3cc(C)on3)sc2n1	i	>57
O=C(CCCn1c(=O)[nH]c2cc(Cl)ccc2c1=O)NCCCN1CCCC1=O	i	>57
Cc1oc(C(=O)O)cc1COc1ccc2c(C)cc(=O)oc2c1	i	>57
CCN(CC)S(=O)(=O)c1cccc(-c2nnc(SCc3nnc(-c4cccs4)o3)n2N)c1	i	>57
COc1cccc2cc(C(=O)C3=C(O)C(=O)N(CCN4CCOCC4)C3c3cccs3)oc12 (centres undefined)	i	>57
O=c1cc(-c2ccccc2O)oc2c(O)c(O)ccc12	i	x
CC(C)c1ccc(C(=O)N2CCN(CCO)CC2)cc1	i	>57
CN(CP(=O)(O)C(O)c1ccccc1)S(C)(=O)=O (centres undefined)	i	x
CC1CN(C(=O)c2cc(S(=O)(=O)N3CCCC3)c(Cl)cc2Cl)CC(C)O1 (centres undefined)	i	>57
O=C(CSc1nc(N2CCCCC2)nc(N2CCCCC2)n1)N1CCN(c2ccccc2)CC1	i	>57
O=C(NCc1ccc(F)cc1)N[C@@H](Cc1ccccc1)C(=O)O	i	>57
O=c1c2ccccc2n2nnnc2n1-c1ccccc1	i	>57
CCOC(=O)N1CCN(C(=O)c2cn(CC(C)C)c(=O)c3c2c2ccccc2n3C)CC1	i	>57
O=C(Nc1nn[nH]n1)c1nc(-c2ccccc2)cc(=O)[nH]1	i	x

Single values from the entries so far:
O=C(CSc1nc(N2CCCCC2)nc(N2CCCCC2)n1)N1CCN(c2ccccc2)CC1 | Bst PK mod: >57
O=C(CCCn1c(=O)[nH]c2cc(Cl)ccc2c1=O)NCCCN1CCCC1=O | Bst PK mod: >57

(cont.)
SMILES	TsaE inh	Bst PK mod
O=C(CN1CCC(C(=O)c2ccc(Cl)cc2)CC1)Nc1ccc2c(c1)OCCO2	i	>57
C/C=C/c1ccc(Oc2nnnn2-c2ccc(C(=O)O)cc2)c(OC)c1	i	>57
CCCCc1cc(=O)oc2c(CN(C)C)c(O)ccc12	i	>57
Cc1ccc2[nH]c(-c3cccc(N)c3)cc2c1	i	u
CCn1c(SCC(=O)N2CCC(C(N)=O)(N3CCCCC3)CC2)nnc1-c1ccccc1	i	>57
O=C1CC(Nc2ccc(N3CCOCC3)cc2)C(=O)N1C1CCCCC1 (centres undefined)	i	>57
c1ccc(-n2nnnc2SCc2cccc3nsnc23)cc1	i	>57
CCOc1ccc(-n2c(=O)[nH]cc(C(=O)N3CCCc4ccccc43)c2=O)cc1	i	>57
CCCCC(=O)Nc1ccc(NC(=O)c2cc(OC)c(OC)c(OC)c2)cn1	i	>57
Cc1ccccc1N(C(=O)CCC(=O)Nc1ccccn1)C(C(=O)NC(C)C)c1ccc(O)cc1 (centres undefined)	i	>57
CN1CCN(c2nc(NCCOC34CC5CC(CC(C5)C3)C4)nc(OCC(F)(F)F)n2)CC1	i	>57
COc1ccc(Cn2c(C3CC3)nc3ccc(NC(=O)C4CC4)cc3c2=O)cc1	i	x
CCOC(=O)N1CCN(S(=O)(=O)c2ccc(C)cc2)C1c1ccc(OC)cc1 (centres undefined)	i	x
COc1ccc2c3c([nH]c2c1)[C@@H]1C[C@@H]2[C@@H](C[C@H](O)[C@H](OC)[C@H]2C(=O)O)CN1CC3	i	x
COc1cc(OC)c(C2C(C(=O)O)c3ccccc3C(=O)N2C)cc1OC (centres undefined)	i	>57
COc1ccc(N2CCC(CNC(=O)Nc3ccc(C)c(C)c3)C2)cc1 (centres undefined)	i	x
O=C(O)[C@H]([C@H]1NCCS1)N1C(=O)c2ccccc2C1=O	i	x
Cc1ccc(-n2cnc3c(sc4nccc(N(C)C)c43)c2=O)cc1	i	x
CCn1c(=O)c2[nH]c(-c3ccccc3)nc2n(CC)c1=O	i	x
O=C(CCCN1C(=O)c2ccccc2C1=O)NC1=NCCS1	i	>57
CCCCC(=O)Nc1cccc(NC(=O)c2ccc3c(c2)OCO3)c1	i	>57
CCNc1ncc2nc(-c3ccc(Cl)cc3)c(=O)n(Cc3cccc(OC)c3)c2n1	i	x
C(=N\n1cnnc1)/c1ccc2c(c1)OCO2	i	x
Cc1c(C(=O)NCc2cccnc2)sc2ncn(CC(=O)N3CCCCC3C)c(=O)c12 (centres undefined)	i	>57
Cc1ccc(CN2CCN(CC(=O)N3CCc4ccccc4C3)C2=O)cc1	i	>57
Cc1ccc(C(=O)N2CCOCC2)cc1S(=O)(=O)Nc1cccc(C)c1C	i	>57
CCOc1cccc(C2C(C#N)=C(N)Oc3cc(C)n(Cc4ccccn4)c(=O)c32)c1OCC (centres undefined)	i	>57
CCOc1ccc2nc(SCC(=O)NCc3ccco3)sc2c1	i	>57
Cc1cc(C(=O)OCC(=O)NC(=O)NC(C)(C)C)c(C)o1	i	>57
CCC(C)(C)n1nnnc1C(CC(C)C)N1CCC(C(N)=O)CC1 (centres undefined)	i	>57
COc1ccc(OCC(=O)OCCN2C(=O)c3ccccc3C2=O)cc1	i	x
CCN1CCN(c2nc3sc4c(c3c3ncnn23)CC(C)CC4)CC1 (centres undefined)	i	>11
c1ccc(-c2nc3ccccc3c3nncn23)cc1	i	x
COCC(=O)OCn1nnc2ccccc2c1=O	i	>57
C[C@](N)(Cc1ccc(O)c(O)c1)C(=O)O	i	x
CCc1ccccc1N1CC23C=CC(O2)C(C(=O)O)C3C1=O (centres undefined)	i	x
O=C(NCC1CCCO1)C1CCN(S(=O)(=O)c2cccnc2)CC1 (centres undefined)	i	>57
CN(C)c1ncc2nc(-c3ccc(F)cc3)c(=O)n(CCc3ccccc3)c2n1	i	x
O=C(O)CCN1C(=O)c2ccncc2C1=O	i	>57
CC(C)CNC(=O)c1cccc(Cn2cc(Cl)cn2)c1	i	>57
CN1c2ccccc2C(C)(C)C12C=Cc1cc(O)ccc1O2 (centres undefined)	u	x
Nc1nccc(Nc2ccc(S(N)(=O)=O)cc2)n1	i	x
COc1ccc(NC(=O)C2C(=O)N(CCO)C3(C)CC2c2ccccc2O3)cc1 (centres undefined)	i	>57
CC(=O)NC(CCS(C)(=O)=O)C(=O)Nc1ccc(Oc2ccccc2)cc1 (centres undefined)	i	x
CCCCCOc1ccccc1C(=O)NCC(=O)O	x	>26
COc1ccc(OCCN(C)Cc2ccccc2)cc1	i	>57
CCCCN(CCCC)C(=O)CSc1nnc2n(C)c(=O)c3c4c(sc3n12)CCCC4	x	>26
O=C(O)C1CSC(c2ccncc2)N1 (centres undefined)	i	>57
Cc1nn(C)c(C)c1S(=O)(=O)N(CC(=O)NCc1ccco1)c1ccc(C(C)C)cc1	i	x
CCC/C=C(\CCC)C(NC(=O)OCC(C)C)c1ccccc1 (centres undefined)	i	x
N=c1n(CCN2CCCCC2)c2ccccc2n1CC(O)c1cccc(Br)c1 (centres undefined)	i	>57
CN(C)CN1C(=O)S/C(=C2/C(=O)N(CN(C)C)c3ccccc32)C1=O	i	x
Cc1onc(-c2ccccc2)c1C(=O)Nc1ccnn1C1CCCCC1	i	>57
CCc1nc(N2CCOCC2)c(C#N)c2c1CCCC2	x	>26
COc1cc(-n2c3nc4ccccc4nc3c3c(=O)n(Cc4ccco4)cnc32)cc(OC)c1OC	x	>26
CCOc1cc(C(=O)OCC(=O)c2c(C)[nH]c3ccccc23)ccc1OCC(=O)N1CCOCC1	i	>57
O=C(O)C1CCCCC1C(=O)NCCc1ccccc1 (centres undefined)	i	>57
CC(C)NC(=O)N1CC[C@@]2(CCCN(C(=O)c3cc(C(F)(F)F)cc(C(F)(F)F)c3)C2)C1	i	x
N#Cc1cccc(NC(=O)COc2ccc(-n3ccnc3)cc2)c1	i	>57
Cc1nnc2ccc(Oc3ccc(-c4ccccc4)cc3)nn12	i	x

Next part; the last four above are carried over.
SMILES	TsaE inh	Bst PK mod
O=C(O)C1CCCCC1C(=O)NCCc1ccccc1 (centres undefined)	i	>57
CC(C)NC(=O)N1CC[C@@]2(CCCN(C(=O)c3cc(C(F)(F)F)cc(C(F)(F)F)c3)C2)C1	i	x
N#Cc1cccc(NC(=O)COc2ccc(-n3ccnc3)cc2)c1	i	>57
Cc1nnc2ccc(Oc3ccc(-c4ccccc4)cc3)nn12	i	x
CC(=O)N1CCN(C(=O)CNc2cc(C(F)(F)F)ccc2OCC(F)(F)F)CC1	i	>57
CN(C)c1ccc(P(=O)(OC2CCCCC2)C(O)c2cccnc2)cc1 (centres undefined)	i	>57
COc1ccc(C2Sc3nncn3N2Cc2ccc(C#N)cc2)cc1 (centres undefined)	i	>57
O=C(NC1CCN(C(=O)NC2CCCCC2)CC1)c1ccco1	i	>57
CCOC(=O)c1c(C)n(C)c2ccc(OCC(O)Cn3nc(C)c(Br)c3C)cc12 (centres undefined)	i	>57
CCc1ccccc1NC(=O)c1cnccn1	i	>57
COc1ccccc1CNC(=O)C1CCN(c2nc3ccccc3o2)CC1	i	>57
CC1=CC=CC2=NC(=O)CC(C)(C(=O)N(CC(=O)NC(C)C)C3CCCC3)N12 (centres undefined)	i	>57
CCCn1c(SCC(=O)Nc2nnc(-c3ccccc3)s2)nnc1-c1ccccn1	i	>57
CCOC(=O)c1sc(NC(=O)CSc2nnc(C(C)C)n2CC)nc1C	i	>57
O=S(=O)(c1cccc2c(Cl)cccc12)N1CCCNCC1	i	x
CCCNC(=O)C1CC(=O)N(c2ccc(OCC(=O)Nc3cccc(C)c3C)cc2)C1 (centres undefined)	i	x
CCOC(=O)Cn1c(C)cc(=O)c2cccc(C)c21	i	x
CCOc1cc(S(=O)(=O)n2cc(-c3ccc(F)cc3)c(N)n2)cc(OCC)c1OCC	i	>57
CCn1cc(C(=O)NCc2cccs2)c(=O)c2cc(S(=O)(=O)N3CCOCC3)ccc21	i	>57
CCOC(=O)N1CCN(S(=O)(=O)c2ccc3c(c2)CCN3C(=O)CC)CC1	i	>57
O=c1c2c3nc4ccccc4nc3n(Cc3ccccc3)c2ncn1Cc1ccco1	i	>57
COc1cccc(N2CCN(CC(=O)NCc3cccs3)CC2)c1	i	>57
CCOc1ccc(CCNC(=O)Cc2nn[nH]n2)cc1OCC	i	>57
O=C(O)CNC(=O)c1ccc(CO)o1	i	x
O=C(CN1C(=O)c2ccccc2C1=O)N1CCCCC1	i	>57
Cn1c2c(c3ccccc31)CCSC2=O	i	>57
COC(=O)c1c(C)oc2cc(Br)c(OCC(=O)C(C)(C)C)cc12	i	x
N#Cc1cc(-c2ccccc2)nn1-c1ccccc1	i	>57
N#Cc1c(-c2ccco2)nc(SCC(=O)Nc2cccc(Cl)c2)[nH]c1=O	i	>57
CC1CCN(S(=O)(=O)N2CCC(C(=O)N3CCC(N(C)CC4CCCO4)CC3)CC2)CC1 (centres undefined)	i	x
O=C(O)Cn1ccnc1	i	>57
CC(=O)C1=C(O)C=C2Oc3c(C(C)=O)c(O)c(C)c(O)c3[C@]2(C)C1=O	i	x
COC(=O)COc1ccc(S(=O)(=O)Nc2cc(OC)ccc2OC)cc1	i	>57
CCn1c(SCC(N)=O)nnc1-c1ccc(OC)c(OC)c1	i	>57
CCOC(=O)CN1C(=O)C(O)=C(C(C)=O)C1c1ccc(F)cc1 (centres undefined)	i	>57
CCOC(=O)Cn1c(CN2CC(C)OC(C)C2)nc2c1c(=O)n(C)c(=O)n2C (centres undefined)	i	x
CCCC(=O)Nc1ccc(OCC(O)CNC(C)C)c(C(C)=O)c1 (centres undefined)	x	>26
COC(=O)CNC(=O)c1ccc(=O)oc1	i	>57
CC1(C)Cc2[nH]c(=O)c(C#N)cc2CS1	x	>26
COCCCNC(=O)C1CCN(S(=O)(=O)N(CC(C)C)CC(C)C)CC1	i	>57
COc1ccc(NC(=O)CSc2nnc(-c3ccccn3)n2N)c(OC)c1	i	>57
O=C(CN1C(=O)c2ccccc2S1(=O)=O)N1CCN(c2ccccc2)CC1	i	>57
CCOc1ccc(-c2nnc(SCC(=O)N3CCN(c4ccccc4)CC3)o2)cc1	i	x
CCC(=O)N1CCc2cc(S(=O)(=O)NC(C(=O)Nc3cccc(C)n3)C(C)C)ccc21 (centres undefined)	i	>57

Not a retest: an excerpt of the list.
SMILES	TsaE inh	Bst PK mod
CCOc1ccc(-c2nnc(SCC(=O)N3CCN(c4ccccc4)CC3)o2)cc1	i	x
CCC(=O)N1CCc2cc(S(=O)(=O)NC(C(=O)Nc3cccc(C)n3)C(C)C)ccc21 (centres undefined)	i	>57

(list continues)
SMILES	TsaE inh	Bst PK mod
Cc1cc(C(=O)Cn2nnc3ccccc3c2=O)c(C)n1-c1c(C)n(C)n(-c2ccccc2)c1=O	i	>57
O=C(c1ccccc1/S(=N/S(=O)(=O)c1ccccc1)N1CCOCC1)N1CCOCC1 (centres undefined)	i	>57
Cc1ccc(NC(=O)Cn2nnc(C(=O)NCc3ccccc3)c2N)cc1C	i	>57
COCCNc1nnc(SCC(=O)c2ccc3c(c2)OCO3)s1	i	>57

Full records, looked up by structure. Order of screens: TsaE inh	Bst PK mod
Profile of COc1cccc(N2CCN(CC(=O)NCc3cccs3)CC2)c1 = i	>57
Profile of COc1cc(OC)c(C2C(C(=O)O)c3ccccc3C(=O)N2C)cc1OC (centres undefined) = i	>57
